# Assay outcomes (PubChem)
# IMPase Li inh – qHTS Assay for Identifying the Cell-Membrane Permeable IMPase Inhibitors: Potentiation with Lithium. CHO-M1 cells, IP1 TR-FRET (IP-One), carbachol + lithium. Potency, µM (series often up to 59.4 µM), without a hit: top-dose activity, negative = IMPase inhibition, hits mostly inhibitors. 210,000 compounds, 0.35% hits. AID 1457, 2008;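 also: IP1 builds up when IMPase is blocked and the TR-FRET signal falls; plate controls were basal vehicle for no effect and high inhibitor control for full effect; nearly all actives have a fitted effect of over 50% in size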
#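 Readout is a homogeneous TR-FRET IP1 immunoassay (Ex 320, Em 665 and 620), where raised cytosolic IP1 lowers signal. Cells were CHO-M1 treated 30 min at 37C with test compounds plus a little lithium; AC50 values came from Hill-equation fitting.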
# aGlu spleen mod – qHTS Assay for Inhibitors and Activators of Human alpha-Glucosidase From Spleen Homogenate; Lysosomal alpha-glucosidase (Homo sapiens), P10253; human spleen homogenate, 4-MU-alpha-glucoside fluorescence; Potency, µM (series often up to 79.9 µM), without a hit: at the top dose activity change, negative = inhibition, most hits filed as inhibitors; 240,000 compounds, 0.006% hits; AID 2112, 2009;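 also: 0% = enzyme with vehicle and -100% = no enzyme basal signal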
#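 Human spleen homogenate (1 ug) incubated with compounds and 1 mM 4-methylumbelliferyl-alpha-D-glucopyranoside in pH 5.0 citrate/phosphate buffer, 37 C, 40 min. Stopped at pH 10; 4-MU fluorescence (Ex 365/Em 440 nm); AC50 by Hill fit.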
# GAA inhib – qHTS Assay for Inhibitors of Human alpha-Glucosidase as a Potential Chaperone Treatment of Pompe Disease; 200,000 compounds, 0.005% hits; purified human GAA, 4-MU-alpha-glucoside fluorescence; Potency, µM (doses to about 76.9 µM), without a hit: top-dose activity change, negative = inhibition, usual class: inhibitors; Lysosomal alpha-glucosidase (Homo sapiens), P10253;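 also: plate controls were uninhibited enzyme wells for no effect and no-enzyme background for full effect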
#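 Read-out is 4-methylumbelliferone fluorescence (Ex 365/Em 440 nm) after NaOH/glycine stop at pH 10. Enzyme 4 nM, substrate 400 uM, pH 5.0 citrate buffer, 20 min room temperature; AC50 from Hill-equation concentration-response.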
# GAA glycogen – qHTS Assay for Inhibitors and Activators of Human alpha-Glucosidase Cleavage of Glycogen. Lysosomal alpha-glucosidase (Homo sapiens), P10253. 300,000 compounds, 0.38% hits. Potency, µM (doses to about 76.4 µM), for inactives: top-dose activity change, negative = inhibition, usual class: inhibitors. AID 2100, 2009. recombinant GAA, glycogen substrate, Amplex Red glucose oxidase fluorescence;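 also: 0% = full enzyme reaction and -100% = no-enzyme basal signal; the screen sought inhibitors and activators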
#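 Recombinant enzyme (4 nM final) with compounds titrated up to 77 uM and bovine liver glycogen (30 ug) in citrate pH 5.0, 0.01% Tween-20, 37 C 40 min. Released glucose detected by Amplex Red/glucose oxidase (Ex 573/Em 610); AC50 from Hill fits.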
# HttQ103 aggreg – qHTS Multiplex Assay to Identify Dual Action Probes in a Cell Model of Huntington: Aggregate Formation (GFP). PC12 HttQ103-GFP aggregates, Acumen cytometry, 40 h. Potency, µM (titrated, usually from 46.1 µM), for the others: at the top dose activity change, negative = inhibition, actives largely listed as inhibitors. 220,000 compounds, 1.1% hits; also: % is scaled to controls: 0 for no effect and ±100 for the full control effect; nearly all actives have a fitted effect of over 60% in size
#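 Aggregates are detected as GFP objects 1–25 µm with signal 6 STDEV over background in lysates of induced PC12 cells. These carry Huntingtin exon 1 with 103 glutamines fused to GFP under an ecdysone promoter; compounds titrated.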
# HTT cytoprotect – qHTS Multiplex Assay to Identify Dual Action Probes in a Cell Model of Huntington: Cytoprotection (ATP). PC12 HTT-Q103 induced, cytoprotection, ATP luminescence, 40 h. Potency, µM (top dose mostly 56.4 µM), for inactives: cytoprotection (ATP increase), most hits filed as activators. 230,000 compounds, 0.14% hits. AID 1471, 2008;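 also: % of control where 0% means no effect; nearly all actives have a fitted effect of over 45% in size; toxic huntingtin expression switched on by the ecdysone agonist tebufenozide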
#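 Quantitative HTS on tebufenozide-induced (100 nM) PC12 cells expressing HTTQ103 exon 1–GFP; compounds tested as a concentration series; survival measured via cellular ATP.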
# * marks the source's active call; other numbers are inactive results; ? = inconclusive; . = no result given; & = joins results of further samples; [ ] = dose if it differs, or a comment. Calls follow the shape of the dose curve; as a rule, active = well fitted curve in the direction sought with a large enough effect; inconclusive = small, poorly fitted or top-dose-only effect, or another doubt; inactive = no such curve, though single readings can be large; an effect the other way counts as inactive or inconclusive. Potency is read from the fitted curve at half-maximal effect.
# Below each SMILES – IMPase Li inh	aGlu spleen mod	GAA inhib	GAA glycogen	HttQ103 aggreg	HTT cytoprotect
C=CC[C@@H]1Cc2c(Br)ccc(Br)c2[C@@H](CC=C)N1
  8.2%	-5.0%	-8.0%	13.9%	?	.
O=C(COc1ccccc1/C=C1/NC(=O)NC1=O)Nc1ccccc1
  -4.6%	-15.5%	1.4%	-3.8%	-7.2%	.
O=C(NCc1ccccc1)c1ccc(CN(c2ccccn2)S(=O)(=O)c2ccccc2)cc1
  10.1%[38.3 µM]	-1.7%	-8.8%	0.2%	0.8%	-27.3%
CC1=C(C(=O)OCc2ccccc2)C(c2cccnc2)n2nnnc2N1 (stereo not given)
  10.1%[38.3 µM]	-4.9%	-15.3%	2.1%	-10.6%	-5.3%
Cc1ccc(-n2c(N)c(C(N)=O)sc2=S)cc1
  -16.7%[38.3 µM]	-6.1%	-13.8%	7.2%	-2.9%	-40.5%[inhibitor]
CN1CCN(c2cc(-c3ccccc3)nc3cc(-c4ccc(F)cc4)nn23)CC1
  -5.4%[38.3 µM]	2.1%	15.0%	4.7%	16.8%	-91.8%[inhibitor]
CC1(C)Oc2ccc3ccc(=O)oc3c2-c2cn[nH]c21
  9.8%[38.3 µM]	-5.0%	-2.5%	1.3%	?	-16.7%[10 µM]
O=C(CCn1cnc2ccccc2c1=O)Nc1nc(-c2ccc(Br)cc2)cs1
  -13.4%	-3.4%	5.0%	6.8%	0.4%	2.0%[10 µM]
CCNS(=O)(=O)c1ccc(NC(=O)c2cc(C(F)(F)F)nn2C)cc1
  19.9%[38.3 µM]	-0.3%	-12.2%	7.0%	0.4%	-16.8%[0.074 µM]
CCc1ccc(CC2S/C(=C(\C#N)C(C)=O)NC2=O)cc1 (stereo not given)
  5.3%[38.3 µM]	-18.9%	-0.4%	0.3%	?	-34.7%[inhibitor][10 µM]
CC(=O)N1CCC(=O)N(C(C)C)c2ccccc21
  1.2%[38.3 µM]	-0.2%	-4.4%	6.4%	-10.0%	-18.1%
O=[N+]([O-])c1ccc(/C=N/n2c(COc3ccccc3)n[nH]c2=S)cc1
  -8.9%[38.3 µM]	8.3%	-4.0%	-21.7%	7.5%	0.3%
Cn1cccc1CC(=O)NNC(=S)Nc1ccc(Cl)cc1Cl
  -0.3%	-12.7%	-1.2%	?	21.5%	21.1%[10 µM]
COc1ccc([N+](=O)[O-])cc1NC(=O)C(C)Sc1ccc(C)cc1 (stereo not given)
  1.5%	3.5%	8.4%	-14.1%	13.0%	3.8%[10 µM]
CC(c1ccccc1)C1CC(=O)N(CC(=O)O)C1=O (stereo not given)
  14.4%[38.3 µM]	1.4%	-4.5%	3.4%	-3.7%	8.0%[10 µM]
CC(=O)N1[C@H](C)C=C[C@]1(Cc1ccccc1)C(=O)O
  9.5%&-13.7%	-3.1%&-12.3%	-4.9%	0.7%	-11.6%	-8.5%
CC(=O)N1[C@H](C)C=C[C@]1(Cc1ccccc1)C(=O)NCc1ccc(C)o1
  -5.1%	-2.1%	.	.	.	-52.6%[inhibitor]
CC1Cc2nc(SCC(N)=O)n(C)c(=O)c2S1 (stereo not given)
  -2.8%	-4.3%	4.3%	4.9%	25.5%	3.7%[10 µM]
COc1ccc(NC(=O)C(c2cc3c(cc2[N+](=O)[O-])OCO3)N(C)Cc2ccccc2)cc1 (stereo not given)
  5.0%	-1.4%	-9.0%	-0.5%	14.1%	11.6%[10 µM]
COc1ccc(/C=C2\N=C(C)N(c3ccc(C(=O)O)cc3)C2=O)cc1OC
  6.2%	-14.9%	-5.2%	-0.1%	-14.6%	.
O=C(Nc1ccc2c(c1)Cc1ccccc1-2)c1ccco1
  1.4%[38.3 µM]	1.5%	-3.9%	-2.7%	-8.3%	-69.8%[inhibitor]
Cc1sc(NC(=O)C2CC(Cl)=CCC2C(=O)O)c(C#N)c1C (stereo not given)
  -1.0%	5.8%	-1.0%	3.5%	4.5%	24.5%
CC(=O)c1ccc(NC(=O)CSc2nnc(-c3ccoc3C)n2Cc2ccccc2)cc1
  41.4%[activator][38.3 µM]	-0.7%	0.5%	-3.9%	-20.9%	-10.1%[10 µM]
N#Cc1c(C#N)c(O)c2ccccc2c1O
  .	-1.5%	8.5%	?	-30.4%[9.22 µM]	3.6%[10 µM]
CC(C)OC(=O)c1cc(=O)[nH]c2ccccc12
  -10.7%[38.3 µM]	-14.2%	0.6%	3.8%	1.6%	5.6%
COc1ccc(/C=C2/S/C(=N/N=C3\CC4CCC3(C)C4(C)C)NC2=O)cc1 (stereo not given)
  4.6%[38.3 µM]	-11.4%	-10.4%	-1.3%	6.2%	?
COc1cccc2sc(N(CCN(C)C)C(=O)/C=C/c3cccs3)nc12
  -1.8%	-3.5%	?	-10.5%	-11.1%	-27.7%
S=c1[nH]nc(COc2ccccc2)n1/N=C/C(Cl)=C/c1ccccc1
  8.7%[38.3 µM]	-4.7%	3.5%	-28.7%	?	?
COc1ccc(Cl)cc1C(=O)NNC(=O)c1cccc(S(=O)(=O)N(C)C)c1
  -1.0%	-6.0%	3.1%	11.3%	8.2%	-12.4%[10 µM]
CC1CCCC(C)N1C(=O)CSc1nnc(COc2cccc3cccnc23)o1 (stereo not given)
  4.5%	4.5%	-11.0%	-6.2%	0.6%[9.22 µM]	1.8%[10 µM]
Cc1ccc2c(c1)C1CN(C)CCC1N2CC(=O)N(C)c1ccccc1 (stereo not given)
  -4.0%[38.3 µM]	0.6%	?	-4.7%	-6.2%	-12.3%[0.074 µM]
O=[N+]([O-])c1ccc(Nc2ccccn2)c([N+](=O)[O-])c1
  -10.5%	10.7%	?	-6.6%	-14.2%[9.22 µM]	-23.3%[10 µM]
CCOC(=O)C1CCCN(c2nc3ccccc3nc2C(C#N)C(=O)NCc2ccccc2)C1 (stereo not given)
  2.8%	-2.9%	-5.5%	1.3%	-14.2%	17.7%[10 µM]
CC(C)C[C@@H](COCc1cccc(Cl)c1)N1CCN(C(=O)c2cccc(C(F)(F)F)c2)CCC1=O
  9.3%	-1.3%	.	.	.	-40.8%[inhibitor][40.3 µM]
COc1ccc(CC(=O)Nc2c3c(nn2C(C)(C)C)CS(=O)C3)cc1 (stereo not given)
  -4.6%[38.3 µM]	6.4%	1.9%	-15.3%	-1.1%	-4.4%
CC(C(=O)NC(C)(C)C)N(Cc1cccs1)C(=O)CCN1CCc2ccccc21 (stereo not given)
  2.7%	1.9%	-13.4%	-10.8%	-15.4%	?
CC(=O)n1cc(C(C[N+](=O)[O-])SCCN)c2ccccc21 (stereo not given)
  18.7%[38.3 µM]	-5.6%	-1.8%	-5.8%	?	-43.7%[inhibitor]
COc1ccc(C2CC2/C(C)=N/OC(=O)c2ccc(F)cc2)cc1 (stereo not given)
  6.5%	.	-7.9%	-2.1%	6.8%	-39.5%[inhibitor]
CN1CCN(C(=O)C2(NC(=O)Nc3cccc(F)c3)CCCCC2)CC1
  -1.7%	-0.8%	-0.9%	6.3%	-8.3%	2.2%[10 µM]
COCCn1c(SCC(=O)Nc2cc(OC)ccc2OC)nc2c(c1=O)SC(C)C2 (stereo not given)
  .	-4.4%	.	2.4%	9.2%[9.22 µM]	3.3%[10 µM]

# Single records, as listed above. Screens in order: IMPase Li inh	aGlu spleen mod	GAA inhib	GAA glycogen	HttQ103 aggreg	HTT cytoprotect
# CC(C)OC(=O)c1cc(=O)[nH]c2ccccc12 is listed with -10.7%[38.3 µM]	-14.2%	0.6%	3.8%	1.6%	5.6%
# CC(C)C[C@@H](COCc1cccc(Cl)c1)N1CCN(C(=O)c2cccc(C(F)(F)F)c2)CCC1=O is listed with 9.3%	-1.3%	.	.	.	-40.8%[inhibitor][40.3 µM]

# Next compounds
# Below each SMILES – IMPase Li inh	aGlu spleen mod	GAA inhib	GAA glycogen	HttQ103 aggreg	HTT cytoprotect
Cc1ccc(-c2nn(-c3ccccc3)c3[nH]c(=O)c(CNCCN(C)C)cc23)cc1
  17.0%[38.3 µM]	4.2%	-12.9%	5.8%	-13.5%	-61.5%[inhibitor]
O=C(CSc1nnc(COc2ccccc2)n1Cc1ccco1)NCc1ccco1
  9.0%[38.3 µM]	-0.2%	0.9%	-5.0%	-10.1%	-17.0%[10 µM]
CC1CC(C)CN(CC(=O)NC(c2ccccc2)c2ccccc2)C1 (stereo not given)
  9.2%	-0.9%	?	11.7%	18.9%[9.22 µM]	15.0%[10 µM]
Cn1cc(/C=N/NC(=O)c2cc3cc(Br)ccc3o2)c2ccccc21
  .	1.9%	.	-8.1%	5.2%[9.22 µM]	22.5%[10 µM]
COC(=O)C1=NN(c2cccc(C)c2)C2C(=O)N(c3ccccc3OC)C(=O)C12 (stereo not given)
  -4.6%	-14.8%	?	10.0%	6.9%	-12.2%[10 µM]
CCCCC#Cc1cncc(C(=O)N/N=C/c2ccccc2)c1
  .	10.4%	.	-2.7%	-9.4%[9.22 µM]	-4.6%[10 µM]
Cc1ccc(NC(=S)NCC2CCN(C(C)c3ccccc3)C2)cc1 (stereo not given)
  7.2%	-3.0%	-4.0%	5.7%	-15.3%	?
O=C(Nc1nnc(SCC(=O)N2CCCCC2)s1)c1cccs1
  -6.6%[38.3 µM]	3.7%	-3.7%	-9.2%	-6.5%	-43.1%[10 µM]
CCCCCCCC(=O)N/N=C(/C)c1c(O)cc(C)oc1=O
  1.6%[38.3 µM]	-0.2%	0.0%	-0.6%	-27.2%	9.2%
Cc1cc(=O)oc2c1c(C)nn2-c1nn[nH]n1
  9.9%[38.3 µM]	-7.6%	0.4%	-2.2%	0.0%	2.5%
CCN=C(N/N=C/c1ccc([N+](=O)[O-])cc1)SC
  6.0%[38.3 µM]	-6.3%	3.9%	1.3%	15.1%	-16.9%
N#CC(C#N)=C(Nc1ccc(F)cc1)SCc1cccc(F)c1
  18.8%	-3.1%	-4.5%	-6.7%	?	?
CN1c2ccccc2Oc2c(c(=O)n(C)c(=O)n2C)C1c1cccc([N+](=O)[O-])c1 (stereo not given)
  5.7%[38.3 µM]	2.5%	-4.6%	2.8%	19.9%	18.4%

# A different layout for part of the listing above.
mol	IMPase Li inh	aGlu spleen mod	GAA inhib	GAA glycogen	HttQ103 aggreg	HTT cytoprotect
COC(=O)C1=NN(c2cccc(C)c2)C2C(=O)N(c3ccccc3OC)C(=O)C12 (stereo not given)	-4.6%	-14.8%	?	10.0%	6.9%	-12.2%[10 µM]
CCCCC#Cc1cncc(C(=O)N/N=C/c2ccccc2)c1	.	10.4%	.	-2.7%	-9.4%[9.22 µM]	-4.6%[10 µM]
Cc1ccc(NC(=S)NCC2CCN(C(C)c3ccccc3)C2)cc1 (stereo not given)	7.2%	-3.0%	-4.0%	5.7%	-15.3%	?

# These rows are one share of the data; rates above refer to the full screens.
